Compound activity deposited in PubChem by several laboratories.
Mtb hypoxia inh = PubChem AID 1159583; M. tuberculosis hypoxia-regulated fluorescent reporter, fluorescence; fluorescence inhibition, % (no concentration beside the values); 300,000 compounds, 0.1% hits;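 active = 35 to 45% if threefold the growth effect, above 45% if 1.5-fold the growth effect; inactive = the rest, general growth blockers included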;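 note: wells of about 50 µL received 100 nL stock; 0% = vehicle wells and 100% = reference inhibitor wells; whole bacteria with a GFP reporter of the hypoxia response; strong numbers were not always called active; many hits fall short of the cut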
Sa RN4220 lethal = growth inhibition of S. aureus RN4220, primary screen, OD600; 16 h; inhibition, % (concentration not given with the values); 330,000 compounds, 0.33% hits; AID 1259311, 2017;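 active = z-score of -3 or lower and OD600 up to 0.18 on both plates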;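 note: plate controls were untreated cells for no effect and reference antibiotic for full effect; stock transfer was 100 nL into about 80 µL; one replicate is shown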
Autofluor counter = flagged as autofluorescent in microsphere protease counterscreen; fluorescence intensity (no concentration beside the values); compound autofluorescence counterscreen, microsphere flow cytometry; active compounds read high; 360,000 compounds, 3.1% hits; AID 624483;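 active = at least 3 SD above the mean of all compounds, about 16000 in these data; inconclusive = too few beads counted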;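 note: 100 nL of 1 mM stock went into each well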
BJeLR lethal = MLPCN primary cell-based screen for lethality selective to Ras in HRASV12 cells; inhibition, % (concentration not given with the values); AID 1554, 2009; 300,000 compounds, 0.17% hits; BJeLR (HRASV12) viability, CellTiter-Glo ATP luminescence, 48 h; reference of the scale not given here;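 active = replicate mean above 50%; inconclusive = above 50% but judged a plate artefact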;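 note: 50 nL library stock added to about 25 µL; numbers are from one replicate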
ugtP null kill = growth inhibition of ugtP-null S. aureus, primary screen, RN4220 ugtP deletion, OD600; 16 h; some inactives read as strong as hits; AID 1259309, 2017; growth inhibition, % (test concentration not listed); 330,000 compounds, 0.54% hits;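 active = z-score under -3 and OD600 up to 0.15 on both plates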;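 note: plate controls were untreated wells for no effect and antibiotic for full effect; wells of about 80 µL received 100 nL stock; the first replicate is given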
PrP UTR inh = inhibition of PrP 5' UTR reporter expression. cell-based PrP 5' UTR mRNA reporter, plate reader. inhibition, % (concentration not given with the values). 340,000 compounds, 0.35% hits;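 active = every replicate at 50% or more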;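 note: 0 = median of the neutral control wells; tested in H4 reporter cells; numbers are from one replicate; inactives centre near -14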
Mtb hypoxia inh growth = recorded beside Mtb hypoxia inh, whose call it bears; growth inhibition, %; measured here: M. tuberculosis growth (absorbance);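 0% = vehicle and 100% = reference antibiotic; read after six days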
Numbers without * were called inactive; ? = inconclusive; . = not tested or not shown.

SMILES | Mtb hypoxia inh | Mtb hypoxia inh growth | Sa RN4220 lethal | Autofluor counter | BJeLR lethal | ugtP null kill | PrP UTR inh
O=C(C1CCCN(Cc2cccs2)C1)N1CCCCCC1 (centres undefined) | . | . | 0.9 | 4517 | 5 | 1 | -17
O=c1[nH]c(=S)n(C2CC2)c(O)c1C=NCc1ccc(F)cc1 | -4 | -3 | 4.3 | 4568 | -6 | 12 | -4
O=C1Nc2ccc([N+](=O)[O-])cc2OC1CCN1CCCC1 (centres undefined) | 8 | 2 | 0.2 | 3973 | 3 | 5 | -15
c1ccc(-c2ccc(-c3[nH]ncc3CN3CCC(N4CCSCC4)CC3)cc2)cc1 | 10 | 8 | -1.3 | 3787 | 5 | -4 | -33
C[C@]12C=CC(=O)C=C1CC[C@@H]1[C@@H]2C(=O)C[C@@]2(C)[C@H]1CC[C@]2(O)C(=O)COC(=O)CCC(=O)O | 7 | -8 | -0.8 | 3014 | -11 | 8 | -21
O=C(Cn1cnc2c(cnn2-c2ccccc2)c1=O)OCc1ccccc1 | 10 | 6 | 1.8 | 9725 | 2 | 8 | -73
COc1ccc(NC(=S)Nc2ccc(C)c(Cl)c2)cc1OC | 6 | 12 | -0.4 | 4179 | -4 | -2 | -59
CCOC(=O)CSC1=C(C#N)C(c2ccccc2)C(C(C)=O)=C(C)N1 (centres undefined) | 0 | 0 | 11 | 9479 | -1 | 28 | -9
CCOc1cc(Cl)c(NC(=O)c2ccco2)cc1OCC | 3 | -6 | 2.8 | 2003 | 0 | 16 | -22
O=C(Nc1ccc(F)cc1)Nc1ccccc1F | -10 | -5 | 2.0 | 2426 | 13 | -1 | -68
COC(=O)c1c(NC(=O)C2c3ccccc3Oc3ccccc32)sc(C)c1C | . | . | -2.7 | 4784 | 3 | 52 | 3
CCN(C(=O)CSc1n[nH]c(-c2ccc(OC)cc2)n1)c1c(N)n(Cc2ccccc2)c(=O)[nH]c1=O | 14 | 8 | 5.0 | 2935 | . | 9 | -7
CC(=O)NC(CC(=O)Nc1ccc(S(=O)(=O)NC2=NCCCCC2)cc1)c1ccccc1 (centres undefined) | -1 | 5 | -2.8 | ? | . | -3 | -18
CCn1c(CNc2ccccc2Cl)nnc1SCC(=O)OC1CCCCC1 | 6 | 6 | 4.5 | 9519 | 1 | 4 | -12
Cc1ccccc1NC(=O)CN1C(=O)C2C3CC(C(Br)C3Br)C2C1=O (centres undefined) | 4 | 3 | 8.8 | 9022 | -5 | -6 | -11
COC(=O)c1ccc(C(=O)OC)c(NC(=O)COC(=O)C2CCC(C(C)(C)C)CC2)c1 (centres undefined) | 13 | 1 | -4.1 | 4287 | 0 | -13 | -19
Cc1cc(C)cc(NCc2ccncc2)c1 | 17 | 8 | 5.2 | 3372 | 0 | 7 | -4
COc1ccccc1CC(=O)NCCN1CCCCC1 | 15 | 8 | 2.8 | 3417 | 0 | 9 | -17
CCOc1ccc(CCNC(=O)COC(=O)c2ccc(OC(C)C)cc2)cc1OCC | 8 | -9 | 4.4 | ? | -11 | 5 | 3
CCC(CC)C(=O)Nc1cc(Cl)ccc1C | -10 | -10 | 2.6 | . | -4 | 0 | .
COc1ccc(N2CCN(C(=O)COC(=O)c3ccc(CSC)o3)CC2)cc1 | 3 | 2 | 2.9 | 2787 | . | 4 | -37
CC(C)(C)C(=O)CSc1nc(N)cc(=O)[nH]1 | 8 | 4 | 6.6 | 4021 | -6 | 10 | -14
Cc1nc(SCC(=O)Nc2ccccc2C(F)(F)F)c2c(=O)n(C)c(=O)n(C)c2n1 | -11 | 2 | -2.1 | 10892 | . | -8 | -14
COc1ccc(S(=O)(=O)N2CCOCC2)cc1NC(=O)CC1CCCC1 | 7 | 4 | 1.0 | 3959 | . | 5 | -8
CSc1ccccc1NC(=O)CN(C)Cc1cccc(Cl)c1 | 5 | -2 | 7.9 | 4294 | -5 | 2 | 1
COc1ccc(CNC(=O)Cn2nnc3ccccc3c2=O)cc1 | -1 | 8 | 4.0 | 3899 | -1 | 7 | -27
CCOc1ccccc1NC(=O)c1ccoc1C | . | . | 0.1 | 3356 | 24 | 9 | -21
CCCn1c(SCC(=O)N(C2CCCCC2)C2CCS(=O)(=O)C2)n[nH]c1=O (centres undefined) | -1 | -2 | -1.7 | 3453 | . | -2 | -9
CC1Oc2ccccc2C=C1C=NNc1ccc(C(=O)O)cc1 (centres undefined) | 12 | 7 | 48 | . | . | 51 | .
CCCN(CCC)C(=O)c1ccc2c(=O)n(Cc3ccco3)c(=S)[nH]c2c1 | 18 | 7 | -1.0 | 4398 | -1 | 14 | 83*
Nc1nccc(-c2ccc(-n3cccc3)cc2)n1 | 1 | 8 | 1.4 | 4115 | 3 | 8 | -62
CCOc1ccc(OCC)c(NC(=O)C2COc3ccccc3O2)c1 (centres undefined) | 7 | 8 | 0.6 | ? | -4 | 11 | -15
CC(=O)c1c(C)[nH]c(C(=O)OCC(=O)NCc2cccs2)c1C | 5 | -6 | 3.2 | . | . | 8 | -42
CN(C)/C=C1\C=C(c2ccccc2)OC1=O | 8 | 2 | 8.1 | 4457 | -5 | -4 | -18
COc1ccc2c(c1)CCCC21NC(=O)N(CC(=O)NC(=O)NCc2ccccc2)C1=O (centres undefined) | -2 | 2 | -5.6 | 3450 | -15 | -7 | -9
Cc1nc2ccccc2c2oc(C(=O)N3CCN(C4CCCCC4)CC3)cc12 | . | . | 0.6 | 5866 | 3 | -4 | 1
Cc1ccc(OCC(O)CN2CCN(c3ccccn3)CC2)c(C)c1 (centres undefined) | 7 | 8 | 3.2 | 4109 | -6 | 2 | -21
CCOC(=O)c1cn2nc(N3CCCC3)ccc2n1 | 0 | -1 | 6.1 | 5980 | -4 | -2 | 40
O=C(CN1CCN(C(=O)C2CCN(C(=O)/C=C/c3ccccc3)CC2)CC1)Nc1ccc(F)cc1 | 2 | 4 | 5.5 | 3028 | . | 4 | 1
COc1cccc2cc(C(C)N(CCCN3CCOCC3)C(=O)Nc3ccccc3)oc12 (centres undefined) | 9 | 1 | -13 | 2396 | 3 | 5 | -5
CC1=CCC2C(=O)N(c3cccc(C(=O)NCc4ccccc4)c3)C(=O)C2C1 (centres undefined) | 1 | -3 | 2.0 | 3399 | 1 | -1 | -11
CCc1noc(C)c1C(=O)N1CCCC(C(=O)c2cc(F)ccc2OC)C1 (centres undefined) | 14 | 2 | 6.0 | 3360 | 7 | 5 | -26
Cc1cc(N2C(=O)C(=O)/C(=C(/O)c3ccc(Cl)cc3)C2c2cccc(Br)c2)no1 (centres undefined) | 6 | 3 | 6.0 | 4110 | -1 | 9 | -10
CNc1nc(SC)nc2ccsc12 | . | . | 5.0 | 2949 | -8 | -3 | -3
C=CCn1c(O)c(N=NC(=O)C(O)c2ccccc2)c2ccccc21 (centres undefined) | -7 | -9 | 6.6 | ? | -2 | 3 | 0
CSc1nc(SCC(=O)NCC2CCCO2)c2c3c(sc2n1)CN(C)CC3 (centres undefined) | 4 | 6 | 2.2 | . | -6 | 1 | .
Cc1nn(-c2ccccc2)c(C)c1/C=C/C(=O)OCC(=O)Nc1ncc(C(F)(F)F)cc1Cl | 2 | -1 | 5.1 | 10026 | 5 | 0 | -19
CSCCC(NC(=O)OC(C)(C)C)C(=O)NC(C(=O)NC(CC(C)C)C(N)=O)C(C)C (centres undefined) | 2 | 6 | 7.1 | 9295 | 1 | 13 | -29
O=c1oc2ccccc2c(CNc2ccccc2)c1[N+](=O)[O-] | 16 | 4 | 6.8 | 3706 | -9 | 10 | -2
O=C(NCCC(=O)N1CCc2ccccc21)c1ccccc1Cl | 0 | 2 | 4.3 | 4637 | -11 | 8 | -16
COc1cccc(/C=C2\CCCCC2=O)c1 | 15 | 1 | 7.2 | 3071 | 13 | -2 | 6
COc1ccc(/C(C)=N\Nc2nc(-c3ccccc3)cc(=O)[nH]2)cc1 | . | . | . | 10152 | -6 | . | -10
COCCNC(=O)CNC(=S)N(Cc1ccccc1)Cc1cccnc1 | -4 | 13 | 1.1 | 2649 | -2 | -2 | -86
COc1ccc(NC(=O)Nc2ccc3[nH]ccc3c2)cc1 | 17 | 6 | 0.8 | . | 0 | 9 | .
O=[N+]([O-])c1ccccc1/C=N/n1c(-c2cccnc2)n[nH]c1=S | . | . | . | 2010 | -12 | . | -12
Cc1ccc(Cl)cc1N1CCN(Cc2nc3c(c(=O)[nH]c(=O)n3C)n2Cc2ccccc2F)CC1 | 2 | 0 | 8.1 | 5304 | -6 | 6 | -4
O=C(O)c1ccccc1NC(=O)C1C2C=CC(C2)C1C(=O)O (centres undefined) | 10 | 1 | 3.5 | 3611 | 1 | 6 | -15
Cc1ccc(C(=O)NCCCN2CCOCC2)cc1Cl | 14 | 6 | 4.2 | 3344 | 2 | 5 | -12
Cc1csc(NC(=O)c2ccccc2)n1 | 5 | 1 | 3.6 | 3257 | -5 | 13 | -64
CCOP(=O)(NC(C)C)Oc1ccc(SC)c(C)c1 (centres undefined) | 7 | 2 | 5.1 | 2966 | . | 5 | -6

11 compounds already listed, arranged by number of heavy atoms, low to high.
SMILES | Mtb hypoxia inh | Mtb hypoxia inh growth | Sa RN4220 lethal | Autofluor counter | BJeLR lethal | ugtP null kill | PrP UTR inh
CNc1nc(SC)nc2ccsc12 | . | . | 5.0 | 2949 | -8 | -3 | -3
COc1cccc(/C=C2\CCCCC2=O)c1 | 15 | 1 | 7.2 | 3071 | 13 | -2 | 6
Cc1ccc(C(=O)NCCCN2CCOCC2)cc1Cl | 14 | 6 | 4.2 | 3344 | 2 | 5 | -12
COc1ccc(NC(=O)Nc2ccc3[nH]ccc3c2)cc1 | 17 | 6 | 0.8 | . | 0 | 9 | .
O=c1oc2ccccc2c(CNc2ccccc2)c1[N+](=O)[O-] | 16 | 4 | 6.8 | 3706 | -9 | 10 | -2
O=[N+]([O-])c1ccccc1/C=N/n1c(-c2cccnc2)n[nH]c1=S | . | . | . | 2010 | -12 | . | -12
COc1ccc(/C(C)=N\Nc2nc(-c3ccccc3)cc(=O)[nH]2)cc1 | . | . | . | 10152 | -6 | . | -10
CCc1noc(C)c1C(=O)N1CCCC(C(=O)c2cc(F)ccc2OC)C1 (centres undefined) | 14 | 2 | 6.0 | 3360 | 7 | 5 | -26
CC1=CCC2C(=O)N(c3cccc(C(=O)NCc4ccccc4)c3)C(=O)C2C1 (centres undefined) | 1 | -3 | 2.0 | 3399 | 1 | -1 | -11
Cc1nn(-c2ccccc2)c(C)c1/C=C/C(=O)OCC(=O)Nc1ncc(C(F)(F)F)cc1Cl | 2 | -1 | 5.1 | 10026 | 5 | 0 | -19
Cc1ccc(Cl)cc1N1CCN(Cc2nc3c(c(=O)[nH]c(=O)n3C)n2Cc2ccccc2F)CC1 | 2 | 0 | 8.1 | 5304 | -6 | 6 | -4

Remaining list, next part:
SMILES | Mtb hypoxia inh | Mtb hypoxia inh growth | Sa RN4220 lethal | Autofluor counter | BJeLR lethal | ugtP null kill | PrP UTR inh
COc1ccccc1CN1CC(C(=O)NCc2cccnc2)CC1=O (centres undefined) | 1 | 6 | -0.1 | 6218 | 0 | -5 | -28
N#Cc1ccc(OCC(=O)N2CCN(C(=O)c3ccco3)CC2)cc1 | -8 | 1 | 6.6 | 3951 | . | -1 | -17
CCCCCC/C=C/c1ccc([C@H]2[C@H]3C=CC[C@@H](C)[C@@H]3C(=O)N2Cc2ccccc2)c(F)c1 | . | . | . | 3921 | -1 | . | 4
CCc1nnc(NC(=O)CCC(=O)N2CCN(c3cccc(Cl)c3)CC2)s1 | 14 | 19 | 3.4 | 5534 | 1 | -2 | -10
Cc1nn(C)c(C(=O)N/N=C/c2ccccn2)c1[N+](=O)[O-] | . | . | . | 5479 | -5 | . | -14
O=C(c1ccccc1)c1cc2ccccc2o1 | . | . | 3.9 | 5301 | -5 | -2 | -61
Cc1ccsc1/C=N\NC(=O)c1cc(C(C)(C)C)[nH]n1 | . | . | . | 4050 | 2 | . | -98
CCN(Cc1ccc2c(c1)OCCO2)S(=O)(=O)c1ccc(NC(C)=O)cc1 | -9 | -2 | 9.0 | 6718 | . | -3 | 11
C[C@H](CO)N1C[C@H](C)[C@@H](CN(C)S(=O)(=O)c2cccs2)Oc2ccc(NS(=O)(=O)c3cn(C)cn3)cc2C1=O | 5 | 3 | -14 | 3777 | . | -1 | -6
